Bioassay records (PubChem BioAssay)
Rango release inh = inhibition of RanGTP-driven Rango-importin beta dissociation | O95149+P62826 | Biochemical FRET Rango-importin beta, RanGTP-induced dissociation | Potency, µM (highest dose often 46.1 µM), for the others: at the top dose activity change, negative = inhibition | 340,000 compounds, 0.071% hits | AID 540253; active means falling FRET ratio curve, often poorly fitted, with flat reads before Ran was added; inconclusive means other falling curves, or compound fluorescence or quenching; inactive means flat or rising ratio curve;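 further: potency means the concentration at half of the fitted maximal effect; % of control where 0% means no effect; nearly all actives have a fitted effect of over 45% in size; -100% = wells without RanGTP and RCC1; the record marks most hits as doubtful in a second field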
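Recombinant Rango FRET biosensor (EYFP–snurportin 1 IBB–cerulean CFP10) at 0.1 uM premixed with 0.25 uM importin beta in PBS, 1 mM DTT, 0.02% Tween-20, 0.1% BSA. Compound added 5 min; RanGTP-RCC1 (0.6 uM Ran, 2 mM GTP, 0.2 uM RCC1) then triggers release, read at 45 min.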
miR-21 FLuc = raises the signal of a miR-21 reporter; HeLa miR-21 FLuc reporter, luciferase, 48 h; Potency, µM (highest dose often 38.3 µM), inactives show at the highest dose reporter change, positive = more light; 340,000 tested, under 10 active; active = well fitted rising curve with a large enough effect; inconclusive = small, poorly fitted or top-dose-only effect; inactive = no such curve, though single readings can be large or run the other way;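 further: % of control where 0% means no effect; miR-21 action dims this reporter so a rising signal means less miR-21 action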
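Using DMEM plus 10% FBS, HeLa miR-21-FLuc cells are incubated with test compounds (final up to about 40uM) for 48 hours; firefly luciferase signal is then imaged following reagent-mediated lysis.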
Rango complex inh = prevents formation of the Rango-importin beta complex; 340,000 compounds, 0.031% hits; Q14974; Rango CFP/YFP FRET sensor + importin beta, 45 min; Potency, µM (series often up to 92.2 µM), inactives show at the top dose inhibition of complex formation; active = rising FRET ratio curve, often small or poorly fitted; inconclusive = mostly compound fluorescence or quenching in the first reads; inactive = flat curves in all reads;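 further: potency means the concentration at half of the fitted maximal effect; 0% = DMSO wells and 100% = buffer wells lacking importin beta; nearly all actives have a fitted effect of over 15% in size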
Target sequence (Q14974 whole entry, looked up): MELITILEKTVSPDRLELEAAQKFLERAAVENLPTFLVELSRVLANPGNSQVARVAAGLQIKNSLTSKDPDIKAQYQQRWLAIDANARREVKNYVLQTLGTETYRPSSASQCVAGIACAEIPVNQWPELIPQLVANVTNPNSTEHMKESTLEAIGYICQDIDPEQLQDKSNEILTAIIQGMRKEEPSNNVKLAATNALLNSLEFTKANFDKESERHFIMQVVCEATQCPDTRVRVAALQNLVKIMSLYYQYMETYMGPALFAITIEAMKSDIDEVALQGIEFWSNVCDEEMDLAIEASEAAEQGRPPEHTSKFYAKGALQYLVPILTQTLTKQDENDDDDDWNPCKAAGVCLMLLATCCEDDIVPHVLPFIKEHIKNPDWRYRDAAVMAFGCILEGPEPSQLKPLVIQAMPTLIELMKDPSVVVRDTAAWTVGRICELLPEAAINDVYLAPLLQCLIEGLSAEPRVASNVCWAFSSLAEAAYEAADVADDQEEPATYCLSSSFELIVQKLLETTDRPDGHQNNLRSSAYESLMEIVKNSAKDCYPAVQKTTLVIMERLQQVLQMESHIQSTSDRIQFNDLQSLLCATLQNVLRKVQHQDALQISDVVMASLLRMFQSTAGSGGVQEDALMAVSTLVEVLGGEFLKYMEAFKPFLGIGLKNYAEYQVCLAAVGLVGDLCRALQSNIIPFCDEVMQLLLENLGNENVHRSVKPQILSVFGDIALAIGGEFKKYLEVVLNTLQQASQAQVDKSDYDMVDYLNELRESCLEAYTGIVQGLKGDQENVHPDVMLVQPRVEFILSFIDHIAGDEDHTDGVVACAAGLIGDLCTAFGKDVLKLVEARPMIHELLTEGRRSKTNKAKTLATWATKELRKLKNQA
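FRET biosensor Rango (snurportin 1 IBB between N-terminal EYFP and C-terminal Cerulean), 50 nM in PBS/1 mM DTT/0.02% Tween-20/0.1% BSA, preincubated 5 min RT with compound; 0.125 microM importin beta added, 45 min RT, CFP/YFP FRET ratio read.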
GLA inh pH 4.5 = blocks human alpha-galactosidase A at pH 4.5. activity change, negative = inhibition, % at 105 µM. 230,000 tested, under 10 active. purified enzyme, 4-MU-alpha-Gal fluorescence, pH 4.5. AID 1467; inconclusive = small, poorly fitted or top-dose-only inhibition, or a rising curve; inactive = flat fitted curve, though single readings scatter; no compound was filed as active;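 further: 0% = full activity with enzyme and -100% = basal without enzyme; dose as in the result columns while the protocol names 77 µM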
An asterisk follows results filed as active; u = inconclusive; x = no result given; & = joins results of further samples. A portion of the library (hit frequency here may not be typical).

The opening five entries, to show the layout:
SMILES	Rango release inh	miR-21 FLuc	Rango complex inh	GLA inh pH 4.5
COC(=O)c1cccc(NC(=O)C2C3CCC(C3)C2C(=O)O)c1 (stereo not drawn)	-5%	-4%	0.4%	3
CCOC(=O)c1c(C(=O)OCC)c(C)n(N2C(=O)CSC2=S)c1C	-6%	-1%	-2.8%	-12
O=C(Nc1cccc(C(F)(F)F)c1)c1cccc(NS(=O)(=O)c2ccc(Br)c(C(=O)O)c2)c1	-6%	-1%	-2.4%	-23
O=C(Nc1cccc(C2=NCCN2)c1)Nc1cccc(C2=NCCN2)c1	-2%	x	u	x
Cc1cc(C)cc(C(=O)Nc2ccc(NC(=O)Cc3ccccc3)cc2)c1	9%	-2%	2.3%	2

The listing, previewed entries included:
SMILES	Rango release inh	miR-21 FLuc	Rango complex inh	GLA inh pH 4.5
COC(=O)c1cccc(NC(=O)C2C3CCC(C3)C2C(=O)O)c1 (stereo not drawn)	-5%	-4%	0.4%	3
CCOC(=O)c1c(C(=O)OCC)c(C)n(N2C(=O)CSC2=S)c1C	-6%	-1%	-2.8%	-12
O=C(Nc1cccc(C(F)(F)F)c1)c1cccc(NS(=O)(=O)c2ccc(Br)c(C(=O)O)c2)c1	-6%	-1%	-2.4%	-23
O=C(Nc1cccc(C2=NCCN2)c1)Nc1cccc(C2=NCCN2)c1	-2%	x	u	x
Cc1cc(C)cc(C(=O)Nc2ccc(NC(=O)Cc3ccccc3)cc2)c1	9%	-2%	2.3%	2
COc1ccc(CNC(=O)C2CCCN2S(=O)(=O)c2ccccc2)cc1 (stereo not drawn)	21%	1%	-4.0%	3
C#CCOCCOCCOCCNc1nc(N2CCN(C(=O)[C@H](CCC(=O)O)n3cc(C(N)CO)nn3)CC2)nc(N2CCN(C(=O)[C@H](CCCCN)n3cc(C(N)[C@H](C)CC)nn3)CC2)n1 (stereo partly drawn)	x	-1%	x	-4
COc1cccc(S(=O)(=O)Nc2ccc(C(=O)Nc3ccncc3)cc2)c1	-10%	4%	2.8%	-7
COc1ccc(C)cc1NC(=O)CN1CCCN(S(=O)(=O)c2ccc(Br)cc2)CC1	-11%	5%&-5%	-4.6%	x
CC(C)c1nnc(NC(=O)Cc2cccs2)s1	-2%	-8%	-1.7%	-2
COc1ccccc1Oc1ncnc2c1cnn2-c1ccccc1	-5%	-76%	-2.2%	-17
CCOC(=O)c1c(NC(=O)CN2C(=O)NC3(CCCCC3C)C2=O)sc(C(=O)N(C)C)c1C (stereo not drawn)	3%	x	-3.8%	x
Cc1nn(CC(C)C)c(=S)[nH]c1=O	0%	-3%	-0.5%	5
O=C(CNC(=O)Cc1ccccc1)NCC(=O)OCc1ccccc1	2%	0%	0.2%	14
O=C(Nc1ccc(O)c(C(=O)O)c1)c1cccc(NC(=O)c2ccco2)c1	0%	8%	-3.0%	x
Cc1cccc(C)c1OCc1n[nH]c(=S)n1N	-3%	2%	-1.1%	5
CCOc1ccc(-n2c(-c3ccccc3)c[nH]c2=S)cc1	10%	0%	-2.5%	x
CCCCCCOc1ccc(C(=O)NCCCn2ccnc2)cc1	10%	23%	0.6%	-8
COCCn1c(=O)[nH]c2cc(C(=O)NCCN3CCN(c4cccc(Cl)c4)CC3)ccc2c1=O	2%	-1%	-1.1%	17
CCn1c2ccccc2c2cc(NC(=O)COC(=O)c3ccccc3O)ccc21	13%	0%	-2.6%	4
Brc1cccc(C2Nc3cccc4cccc(c34)N2)c1	2%	-1%	3.7%	x
Cn1c(=O)n(C)c2cc(NC(=O)c3cccc([N+](=O)[O-])c3)c(Br)cc21	-14%	2%	2.8%	-14
CC(=O)Nc1ccc(C(=O)NN2C(=O)c3ccccc3C2=O)cc1	11%	4%	-0.3%	-2
CCOC(=O)C1(Cc2ccccc2)CCN(Cc2cnn(-c3ccccc3)c2)CC1	7%	-5%	1.6%	-7
CCC(NC(=O)c1cc(COc2cncc(Cl)c2)on1)c1ccc(C)cc1 (stereo not drawn)	12%	14%	-0.1%	x
CN(C)c1cccc(C(=O)OCC(=O)N(Cc2ccccc2)C2CCS(=O)(=O)C2)c1 (stereo not drawn)	4%	1%	-3.9%	6
CCCN(CC(=O)Nc1ccc(C)cc1Br)CC(=O)Nc1ccc(F)c(F)c1F	29%	22%	-3.2%	-18
CCOC(=O)C1=C(c2ccccc2)OC(N)=C(C#N)C1C1CCCCC1 (stereo not drawn)	5%	0%	-1.8%	-12
COc1ccccc1NC(=O)COC(=O)c1cc(C)oc1C	-17%	x	3.4%	x
CCN1CCN(CC(=O)N2N=C(c3cccs3)CC2c2ccc(F)cc2)C(=O)C1=O (stereo not drawn)	-8%	-15%	8.4%	5
CCc1ccc(NCc2cc3c(C)nn(-c4ccccc4)c3[nH]c2=O)cc1	u	8%	-0.2%	-4
COc1ccc(CNS(=O)(=O)c2c(C(=O)N3CCCCC3)c(C)n(C)c2C)cc1	17%	0%	3.7%	x
Cc1ccc(C(=O)NC(=S)NNC(=O)COc2ccc([N+](=O)[O-])cc2)cc1	-7%	-33%	-0.2%	x
O=C(CCNC(=O)c1ccc([N+](=O)[O-])cc1)N/N=C/c1ccc(F)cc1	-3%	0%	9.1%	-17
Cn1c(N2CCCC2)nc2c1c(=O)n(Cc1ccc(Cl)cc1)c(=O)n2C	7%	-9%	3.9%	3
COc1cccc(CC(=O)OCC(=O)NC2CCCCCC2)c1	-9%	1%	-1.9%	x
O=C(O)C1CCCCC1C(=O)NCc1ccc(Cl)c(Cl)c1 (stereo not drawn)	0%	-15%	0.1%	0
O=C(OC(C(=O)NCc1ccco1)c1ccc(Cl)cc1)c1cccs1 (stereo not drawn)	-7%	0%	-3.1%	3
CC(C)N1CCC(=O)NC1=O	8%	x	u	x
COc1ccccc1OCCNC(=O)CNC(=O)c1ccc(C(C)(C)C)cc1	8%	x	-0.1%	x
O=C(CN1CCN(S(=O)(=O)c2ccccc2)CC1)Nc1ccc(Cl)c(Cl)c1	10%	17%	4.2%	-8
O=C(Nc1nc2ccccc2[nH]1)c1ccc([N+](=O)[O-])cc1	16%	-52%	-1.3%	4
COCc1cc(=O)[nH]c(SCC(=O)c2ccccc2)n1	1%	-1%	3.5%	-5
COc1cc(C(=O)NNC(=O)Cc2cccs2)cc(OC)c1OC	-8%	x	0.1%	x
CC(=O)Oc1cccc(NC(=O)c2ccc3c(c2)C(=O)N(CC(C)C)C3=O)c1	15%	-15%	0.5%	x
CCOC(=O)CN1N=C(c2ccc(C)cc2)CCC1=O	-1%	-10%	3.8%	x
O=C1CC(c2ccccc2)CC2=C1CN(C1CCCCC1)CN2 (stereo not drawn)	0%	-2%	-4.3%	13
CCN(CC)CCN(C(=O)CN1C(=O)CCC1=O)c1nc2cc3c(cc2s1)OCO3	-2%	-2%	0.9%	-16
CCn1nnnc1SCC(=O)Nc1ccc(N(C)C)cc1	-7%	-20%	-0.2%	x
COc1cc(C)ccc1OCCOc1cc(C)ccc1Cl	-1%	-25%	2.6%	-10

Carrying on.
SMILES	Rango release inh	miR-21 FLuc	Rango complex inh	GLA inh pH 4.5
CC1CCCN(C(=O)c2ccc3nc[nH]c3c2)C1 (stereo not drawn)	0%	-24%	-2.5%	3
O=C(COc1coc(CN2CCc3ccccc3C2)cc1=O)N1CCOCC1	2%	x	3.0%	x
Cn1cccc1C(=O)NC(=O)CSc1cccc[n+]1[O-]	8%	-1%	0.0%	-4
COc1ccc(-c2c(C#Cc3ccsc3)c3cc(-c4ccc5c(c4)OCO5)ccc3n2C)cc1	1%	x	2.4%	x
COCC(=O)N/N=C\c1ccccc1OC/C=C/c1ccccc1	-27%	-2%	0.6%	x
COc1ccccc1OCC(=O)N/N=C/c1cccc2cccnc12	1%	4%	-0.5%	x
N#CC1=C(S)N(c2ccc(F)cc2)C(c2ccco2)NC1=O (stereo not drawn)	-6%	4%	-0.9%	3
CN1C2=CC=CC=CC2=[N+](C)C12C=CC(=[N+]([O-])[O-])C=C2[N+](=O)[O-] (stereo not drawn)	-17%	1%	u	-8
CCOc1ccc(S(=O)(=O)N2CCC(C(=O)N3CCN(Cc4ccccc4)CC3)CC2)cc1	0%	8%	-0.2%	x
CCOC(=O)C1CCCN(S(=O)(=O)c2c(C)noc2C)C1 (stereo not drawn)	7%	3%	-1.1%	x
COCC1CCN(C(=O)C2CCC(=O)N(C3CCCCCC3)C2)CC1 (stereo not drawn)	4%	-3%	-0.1%	x
CCOC(=O)c1cnc2c(cnn2C)c1Oc1ccc(OC)cc1	-9%	0%	-5.6%	-7
COc1ccccc1NC(=S)NCc1ccc2c(c1)cc(C)n2C	-2%	-6%	-1.6%	-9
COc1ccc(NC(=O)C(c2cc3c(cc2[N+](=O)[O-])OCO3)N(C)c2ccccc2)cc1 (stereo not drawn)	8%	-30%	-2.7%	3
Cc1cc(/C=C2\SC(=Nc3ccc(N4CCOCC4)cc3)N(C)C2=O)c(C)n1-c1cccnc1	7%	-33%	0.2%	3
Cc1cccc(NCc2cccc3ccccc23)n1	5%	-37%	3.1%	x
CCN(CC)c1ccc2cc(-c3nnc(-c4ccncc4)o3)c(=O)oc2c1	u	-30%	u	-2
Cc1nnc(SCC(=O)Nc2nc(-c3ccccc3)cs2)n1N	-1%	-11%	u	-1
Cc1ccc(OCCn2cncn2)c([N+](=O)[O-])c1	11%	-12%	5.9%	x
C[C@H](NC(=O)c1cc2cc(Cl)ccc2n1C)C(=O)N1CCC(C(=O)O)CC1	-2%	-5%	-0.4%	x
COc1ccc(Cc2nnc(NC(=O)C3CC(=O)N(c4ccccc4C)C3)s2)cc1OC (stereo not drawn)	31%	x	0.0%	x
CCC(C#CCN1CCCCC1)(CC)OCCC#N	14%	-3%	-2.4%	2
Cc1ccc(NC(=O)CN(C)CC(=O)Nc2ccc(N3CCOCC3)cc2)cc1F	-3%	-11%	0.3%	7
CN1CCN(CCC(=O)N/N=C/c2ccccc2F)CC1	9%	0%	1.2%	5
O=C(Cn1c(C(=O)N2CCN(C3CCCC3)CC2)cc2sccc21)c1ccccc1	-2%	-2%	5.7%	1
Cc1cc(C)nc(SCC(=O)N/N=C/c2ccc3c(c2)OCO3)n1	6%	-22%	-1.0%	x
COc1ccc(CNC(=O)C(c2ccc(O)cc2)N(Cc2ccco2)C(=O)c2snc(C(N)=O)c2N)cc1 (stereo not drawn)	5%	u	-18%	x
COc1ccc(CN2CCNC(=O)C2CC(=O)N2CCCO2)c(OC)c1 (stereo not drawn)	-7%	0%	2.9%	2
COc1ccccc1CNS(=O)(=O)c1ccc2c(c1)NC(=O)CO2	-1%	-6%	0.1%	x
COc1ccc2cc(CO)n(C)c2c1	-10%	x	u	x
C=CCNc1nc(N)c([N+](=O)[O-])c(Nc2cccc(Cl)c2)n1	-1%	-10%	-1.3%	x
CC(C)Cc1[nH]c(=O)c(C#N)c2c1CCCC2	-6%	-12%	0.2%	-1
COc1ccc(NC(=O)c2sc3nc(N4CCOCC4)c4c(c3c2N)CC(C(C)C)OC4)c(OC)c1 (stereo not drawn)	16%	-6%	-1.6%	x
O=C(CN1CCCC1)NC1C2CC3CC(C2)CC1C3 (stereo not drawn)	-3%	-12%	-1.6%	-2
COc1ccc(C(OCC(O)CNC(C)c2ccccc2)c2ccc(OC)cc2)cc1 (stereo not drawn)	4%	14%	1.6%	x
Cc1nn(C)c(Cl)c1CN1CCCC(C(=O)Nc2ccc(-c3cscn3)cc2)C1 (stereo not drawn)	-2%	0%	2.2%	x
COc1cccc(NC(=O)CN(C)C(=O)CCCc2nc3ccccc3c(=O)[nH]2)c1	8%	x	1.0%	x
O=C(NCc1ccco1)c1ccc2c(c1)N(Cc1ccccc1)CCS2	-1%	14%	0.6%	-6
CC(C)(C)OC(=O)C[C@@H]1C/C=C\C[C@@H](CC(=O)NCCO)C(=O)NCCOC1=O	-11%	x	-0.1%	x
